# Screening data as filed in PubChem BioAssay.
# Yeast UUG start: modulators of yeast start codon fidelity, primary screen, whole organism, S. cerevisiae, single point, plate reader | activity score, % at 18.7 µM | S. cerevisiae UUG-firefly luciferase reporter, luminescence/redox ratio | 0.13% of 350,000 active;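 active = replicate mean at a twofold rise or more, about +100% in these data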;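 note: firefly luciferase made from a UUG start codon reports start codon fidelity; reporter light over untreated wells divided by growth signal over untreated wells; some hits fall short of that in this replicate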
# CSC inhib: cancer stem cell viability inhibitors, primary screen, luminescence | cancer stem cell-like cells viability | inhibition, % at 7.5 µM | 1.1% of 300,000 active | AID 2717, 2010;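 active = mean at 75% or more and at least half the replicates too; inconclusive = mean and replicates disagree; tested in HMLE shEcad cells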;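 note: 0% = median of negative and 100% = median of positive control wells; the first replicate is given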
# PABP FP inh: PABP poly(A) RNA binding inhibitors, primary screen, biochemical, fluorescence polarization, uHTS; Polyadenylate-binding protein 1 (Homo sapiens), P11940; inhibition, % at 35 µM; 1% of 290,000 active; AID 2014, 2009;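 active = 50% or more with normal probe brightness, or confirmed in later tests; inconclusive = above 50% with abnormal brightness, or retests that disagree; inactive = below 50% or failed in later tests; about a fifth of its hits are not listed in these tables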;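 note: calls also rest on retests at 20 µM and on dose response follow-up; controls were probe without protein and protein plus probe with vehicle; some compounds called inactive have numbers as strong as hits; many hits fall short of the cut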
# Target sequence (P11940 whole entry, looked up): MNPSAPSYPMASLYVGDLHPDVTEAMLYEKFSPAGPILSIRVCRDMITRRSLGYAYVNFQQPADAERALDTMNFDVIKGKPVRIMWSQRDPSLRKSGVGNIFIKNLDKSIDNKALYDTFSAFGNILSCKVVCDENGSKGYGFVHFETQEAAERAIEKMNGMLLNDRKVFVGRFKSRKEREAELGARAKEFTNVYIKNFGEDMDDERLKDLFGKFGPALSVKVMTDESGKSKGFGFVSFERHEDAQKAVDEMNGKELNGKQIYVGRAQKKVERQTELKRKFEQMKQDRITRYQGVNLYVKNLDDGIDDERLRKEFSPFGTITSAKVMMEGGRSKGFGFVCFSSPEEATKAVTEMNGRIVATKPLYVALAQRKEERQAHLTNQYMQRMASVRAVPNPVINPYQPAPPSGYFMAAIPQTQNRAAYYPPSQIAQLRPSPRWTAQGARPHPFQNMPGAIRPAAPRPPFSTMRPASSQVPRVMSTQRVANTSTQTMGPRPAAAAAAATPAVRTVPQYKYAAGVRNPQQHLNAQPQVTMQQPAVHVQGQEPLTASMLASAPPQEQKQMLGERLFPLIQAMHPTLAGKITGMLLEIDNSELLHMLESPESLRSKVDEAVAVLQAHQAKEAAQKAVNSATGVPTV
# Rce1 inhib: yeast Rce1p protease inhibitors, primary screen, biochemical, fluorescence, cell-free homogeneous; yeast membranes, quenched prenylated peptide cleavage fluorescence; calls only; 0.27% of 290,000 active; AID 2563, 2010;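 active = fall in fluorescence gain of 50% or more versus controls, with final raw signal at or below 3038400; inconclusive = same 50% fall but final raw signal above 3038400; inactive = fall in fluorescence gain under 50%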;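 note: plate controls were neutral control wells for no effect and wells lacking membranes for full effect; tested at 10 µM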
# Target sequence (Q03530 whole entry, looked up): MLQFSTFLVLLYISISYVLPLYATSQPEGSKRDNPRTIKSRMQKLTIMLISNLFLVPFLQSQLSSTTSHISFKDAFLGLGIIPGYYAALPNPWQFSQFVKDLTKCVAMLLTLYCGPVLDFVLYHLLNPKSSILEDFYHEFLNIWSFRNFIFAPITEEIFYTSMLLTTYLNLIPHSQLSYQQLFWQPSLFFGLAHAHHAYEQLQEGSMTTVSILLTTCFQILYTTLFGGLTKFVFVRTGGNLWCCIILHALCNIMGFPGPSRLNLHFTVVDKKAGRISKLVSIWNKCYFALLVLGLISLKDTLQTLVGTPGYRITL
# eIF4H inh: human eIF4H binding inhibitors, primary screen, translation initiation inhibitor project, biochemical, uHTS, fluorescence polarization | 0.94% of 290,000 active | eIF4H fluorescence polarization binding assay | inhibition, % at 35 µM;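 active = 50% or more with normal probe brightness, or confirmed in later tests; inconclusive = above 50% with abnormal brightness, or retests that disagree; inactive = below 50% or failed in later tests; about a fifth of its hits are not listed in these tables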;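 note: calls also rest on retests at 20 µM and on dose response follow-up; 0% = protein and probe with vehicle and 100% = probe without protein; strong numbers were not always called active; many hits fall short of the cut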
# MT1-MMP act inh: blockers of MT1-MMP proenzyme processing, primary screen, HT1080 RFP-PRO-GFP cells, GFP/RFP fluorescence; Matrix metalloproteinase-14 (Homo sapiens), P50281; GFP/RFP ratio fluorescence, overnight; percent of plate control window, DMSO zero; GFP/RFP ratio change, % at 20 µM; 0.061% of 360,000 active; AID 651647, 2012;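 active = GFP/RFP ratio change of at least 30% with cell ATP level not reduced by more than half and red fluorescence within 50% of control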; note: strong numbers were not always called active
#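 Material: RFP-PRO-GFP reporter HT1080 cells. Dosing: single-point 20 µM compound, 1% DMSO. Controls: DMSO and RFP-L50D-GFP cell wells. Timing: cells overnight before dosing, compound overnight, 37 °C, 5% CO2. Measure: GFP/RFP fluorescence ratio.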
# HIV Env fusion: inhibitors of HIV-1 Env-driven cell-cell fusion, primary screen, HeLa-JRFL effector, CEM21 target cells, luciferase. inhibition, % at 12.3 µM. 1.1% of 360,000 active;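 active = mean replicate inhibition score of at least 50 and every replicate individually at or above 50; inconclusive = only one of the two criteria met; inactive = mean below 50 and not all replicates reaching 50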;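 note: 0% = plate neutral controls and 100% = maraviroc near 300 nM; one replicate is shown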
# MT1-MMP act inh RFP: further read-out of MT1-MMP act inh, marked with its call; RFP signal change, %; measured here: RFP expression control read;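 0 = vehicle wells; hits needed this value within 50% of zero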
# * hit, by the source's call; i = inactive; ? = inconclusive; · = no result given; & = joins results of further samples; [ ] = another dose, or the depositor's remark.
SMILES,Yeast UUG start,CSC inhib,PABP FP inh,Rce1 inhib,eIF4H inh,MT1-MMP act inh,MT1-MMP act inh RFP,HIV Env fusion
Cc1ccc2c(c1)cc(C)c1nnc(SCC(=O)NCc3ccco3)n12,·,-4,7,i,7,6,-2,·
CCCCN(CC)CCCNC(=O)c1ccc2c(c1)N(CC)C(=O)c1ccccc1S2(=O)=O,-9,1,2,i,1,-1,-1,3
Cc1cc(C)n(-c2nncn2/N=C/c2ccccc2F)n1,-15,·,-2,i,5,-2,0,-72
O=C(CN1CCN(S(=O)(=O)c2ccc(F)cc2)CC1)NCc1cccs1,-7,-14,·,i,·,-7,2,-16
COc1cccc2sc(Nc3nnc(-c4cccs4)o3)nc12,-27,63,14,i,17,3,0,30
CC(C)=CCC/C(C)=C/CN(CC(C)O)CC(C)O (stereo not drawn),-10,-21,17,i,4,6,4,·
CSc1c(CC(=O)Nc2ccccc2)n(C)c2ccccc12,-17,19,-1,i,-4,1,-6,7
CN1CCN(/N=C/c2ccc(Cl)c(Cl)c2)CC1,·,·,-7,i,-4,6,7,10
CC(C)(C)C(=O)NC(=S)Nc1cc(C(=O)O)ccc1Cl,3,-4,-3,i,-1,-2,4,·
CC1(C)CC(NC(=S)NCc2ccco2)CC(C)(C)N1,-23,-2,-6,i,-3,-2,1,10
COc1cc(NC(=O)CCNS(=O)(=O)c2cc(Br)cnc2N)cc(OC)c1,-7,4,·,i,·,2,6,4
CCOC(=O)c1ccccc1NC(=S)N1CCCCC1,·,9,-2,i,-15,-2,-2,·
CC(C)[C@H](NC(=O)c1ccccc1)C(=O)OCC(=O)N1CC(=O)Nc2ccccc21,-21,-8,-6,i,0,-1,2,-13
CCN(CC)C(=O)C12CC3CC(CC(Br)(C3)C1)C2,0,-5,-13,i,-6,1,0,7
COc1cc(C(c2nnnn2C(C)(C)C)N2CCN(c3nc4ccccc4s3)CC2)ccc1O (stereo not drawn),-2,0,0,i,-6,4,0,·
Cc1ccc2nc(CN(C)C(=O)[C@H]3O[C@@H](n4ccc(=O)[nH]c4=O)[C@H](O)[C@@H]3O)[nH]c2c1,-14,·,·,·,·,-2,5,3
COc1cccc(N2CCN(C(=O)c3cccc(N4C(=O)NC5CC4(C)Oc4c(OC)cccc45)c3)CC2)c1 (stereo not drawn),-8,-10,30,i,-3,-2,-6,1
Cc1ccc(-c2cc(C(=O)NCc3ccco3)no2)cc1,-13,-5,10,i,-2,-1,1,·
CN1/C(=C\C=C(/C#N)C(=O)Nc2ccc(Cl)cc2)C(C)(C)c2ccccc21,·,7,-2,i,?,-171,1,8
CCC(C)NC(=O)C1CCCCN1S(=O)(=O)c1ccc(F)cc1 (stereo not drawn),-7,-1,-1,i,-12,-6,2,11
CCOC(=O)c1cc2ccccc2nc1C,-17,-6,0,i,-3,-2,0,-35
Clc1cccc(CN2C3=NCCCN3c3ccccc32)c1,1,-11,5,i,3,2,5,-2
CCCC(c1nnnn1Cc1ccccc1)N1CCC(C(N)=O)CC1 (stereo not drawn),-16,-14,-1,i,3,4,7,·
CCC(=O)Nc1c(C)nn(-c2ccc(C)c(C)c2)c1C,-7,1,-10,i,-12,-1,0,-7

# Some of these compounds in order of molar mass, descending:
SMILES,Yeast UUG start,CSC inhib,PABP FP inh,Rce1 inhib,eIF4H inh,MT1-MMP act inh,MT1-MMP act inh RFP,HIV Env fusion
Cc1ccc2nc(CN(C)C(=O)[C@H]3O[C@@H](n4ccc(=O)[nH]c4=O)[C@H](O)[C@@H]3O)[nH]c2c1,-14,·,·,·,·,-2,5,3
CC(C)[C@H](NC(=O)c1ccccc1)C(=O)OCC(=O)N1CC(=O)Nc2ccccc21,-21,-8,-6,i,0,-1,2,-13
CCC(C)NC(=O)C1CCCCN1S(=O)(=O)c1ccc(F)cc1 (stereo not drawn),-7,-1,-1,i,-12,-6,2,11
COc1cccc2sc(Nc3nnc(-c4cccs4)o3)nc12,-27,63,14,i,17,3,0,30
CCOC(=O)c1ccccc1NC(=S)N1CCCCC1,·,9,-2,i,-15,-2,-2,·
CN1CCN(/N=C/c2ccc(Cl)c(Cl)c2)CC1,·,·,-7,i,-4,6,7,10

# Following part.
SMILES,Yeast UUG start,CSC inhib,PABP FP inh,Rce1 inhib,eIF4H inh,MT1-MMP act inh,MT1-MMP act inh RFP,HIV Env fusion
COC(=O)c1ccccc1NC(=O)NCCc1ccc(OC)c(OC)c1,·,-14,25,i,-1,0,-3,-14
CCOc1ccccc1NC(=O)CN1C(=O)COc2ccc(C)cc21,-11,-2,-6,i,-6,3,2,-16
Cc1ccnc(NC(=O)CCCc2ccccc2)c1,24,24,-1,i,1,-13,0,-13
Cc1ccc(C(=O)NCCCNC(=O)Cc2ccc(Cl)cc2)cn1,-11,-5,·,i,·,-1,2,-89
O=C1c2cccc(-c3ccc(C(F)(F)F)cc3)c2C2CC=CCN12 (stereo not drawn),0,·,·,·,·,3,-12,-11
Cc1ccc(CNC(=O)c2cnccn2)cc1,·,-10,-7,i,-2,0,1,-2
COc1ccc2[nH]c(=O)c(CN(Cc3cccs3)C(=S)NCC3CCCO3)cc2c1 (stereo not drawn),·,-8,2,i,2,-3,-3,6
O=C(CN1C(=O)c2ccccc2S1(=O)=O)NCc1c(F)cccc1F,-11,-6,·,i,·,5,3,8
CCN(CC)CC1C(=O)N(c2ccc(OC)cc2)C1c1ccccc1 (stereo not drawn),10,-16,1,i,-10,-1,4,-8
CCNC(=S)Nc1cccc(Cl)c1C,-17,-5,-6,i,6,-4,-2,·
Cc1cc(C(=O)Nn2c(-c3ccc(Br)cc3)nc3ccccc3c2=O)ccc1[N+](=O)[O-],-16,38,12,i,-2,1,-11,-43
Cn1ccnc1SCc1ccc(Cl)cc1Cl,-22,6,-6,i,-4,2,2,-1
Cc1cccc(CSc2nc3c(cc2C#N)CCC3)c1,·,11,0,i,4,-3,-2,-36
CCOC(=O)C1CCCN(C(=O)/C=C/c2cccc([N+](=O)[O-])c2)C1 (stereo not drawn),13,-6,1,i,-2,-1,-2,·
COc1ccc(CCN(C)C(=O)C2CCN(Cc3cccc(OC)c3OC)CC2)cc1OC,-17,-8,9,i,4,6,6,-7
Cc1ccc(-c2nc3ccccc3[nH]2)cc1N,-38,18,-11,?,-11,9,-1,·
N#Cc1c(NC(=O)C2CC(c3ccccc3O)=NO2)sc2c1CCC2 (stereo not drawn),-7,32,-12,i,-4,-7,-3,-9
Cc1ccc(-n2nc(C)c3c(C)c(CCC(=O)NC(C)c4ccccc4)c(C)nc32)cc1 (stereo not drawn),-1,-6,-5,i,0,-3,-3,35
COc1ccc(C(N)c2csc(Nc3cc(Oc4ccccc4)ncn3)n2)cc1 (stereo not drawn),-23,·,·,·,·,-4,-8,-3
Cc1c(/C(O)=C2\C(=O)C(=O)N(CCN(C)C)C2c2ccco2)cnn1-c1ccccc1 (stereo not drawn),-23,3,-5,i,-5,-3,2,-122
COc1cc2c(cc1OC)C(c1cccs1)N(C(=O)C(C)C)CC2 (stereo not drawn),3,18,2,i,5,1,-3,-72
CCOc1cc(-c2c(C#N)c(N)nc3c2CCc2ccccc2-3)ccc1O,·,0,21,i,1,-14,-17,-36
Cc1cc(-n2nc(C)cc2C)n2ncc(-c3ccccc3)c2n1,-10,-6,4,i,-1,-11,-2,-124
Cc1ccc(NC(=O)CCS(=O)(=O)c2ccc3nc(C)sc3c2)cc1,-9,·,-4,i,-14,13,3,24
COc1ccc(Cc2nnc(NC(=O)CSc3ccccc3)s2)cc1OC,-12,0,-5,i,-2,2,-1,-14
COCCNC(=O)c1ccc(CS(=O)(=O)c2ccc(C)cc2)o1,15,-1,1,i,10,7,5,-12
COC(=O)c1ccccc1C(=O)c1cccc2ccccc12,-2,26,3,i,6,1,-4,3
C#CCOCCOCCOCCNc1nc(N2CCN(C(=O)C(Cc3ccc(O)cc3)n3cc(C(N)CC(C)C)nn3)CC2)nc(N2CCN(C(=O)C(Cc3cc4ccccc4[nH]3)n3cc(C(N)Cc4ccc(O)cc4)nn3)CC2)n1 (stereo not drawn),·,-24,36,i,11,·,·,·
COCCNC(=O)C1(C)CCN(C(=O)c2ccc(C(F)(F)F)nc2C)C1 (stereo not drawn),-12,·,·,·,·,2,4,-6
O=S(=O)(O)c1nc2ccccc2n1Cc1cccc2ccccc12,·,-11,6,i,2,·,·,·
CCOc1ccc(S(=O)(=O)Nc2ccc(C(=O)N(CC)CC(=O)NCc3cccs3)cc2)cc1,2,·,·,·,·,-1,-2,-25
CC12CCC(C(=O)N3CCCCC3)([C@H](Br)C1=O)C2(C)C (stereo partly drawn),1,-8,3,i,-2,4,2,12
CN(CC(=O)N1CCN(c2ccc(F)cc2)CC1)S(=O)(=O)c1ccc2c(c1)c(=O)n(C)c(=O)n2C,·,·,1,i,4,0,-2,-18
Cc1c(C(=O)N(Cc2ccccc2)C2CCS(=O)(=O)C2)oc2ccccc12 (stereo not drawn),3,·,-2,i,-14,-2,1,-9
CCCNC(=O)C1(C)CCCN(Cc2c(C)nn(-c3ccccc3)c2C)C1 (stereo not drawn),-13,·,·,·,·,2,0,-2
Cc1cccc(NC(=O)[C@H](Cc2c[nH]c3ccccc23)NC(=O)[C@@H]2Cc3ccccc3CN2)c1,0,42,-15,·,-4,-5,-5,·
CCC(c1nnc(SCC(=O)Nc2ccc(C(=O)N(C)C)cc2)n1Cc1ccccc1)N(C)C (stereo not drawn),8,-4,13,i,-5,-1,0,-8
O=C(Nc1ccc(F)cc1)C1CCCN(c2cnccn2)C1 (stereo not drawn),-14,·,0,i,-4,0,4,-3
CCO[C@H]1OC(C(=O)O)=C[C@@H](c2ccccc2)[C@@H]1CCCO,-9&3,-14,·,i,·,-3,0,26[16.7 µM]
COc1ccc(-c2csc(C)n2)cc1OC,-3,-5,0,i,-5,4,-5,i
Cc1ccccc1NC(=O)NCC1CCN(c2ccc(S(=O)(=O)N3CCOCC3)cc2)CC1,-7,0,0,i,-2,2,-7,10
Cc1onc(-c2ccccc2)c1C(=O)NC(C)CCc1ccccc1 (stereo not drawn),-17,1,2,i,-12,-2,-1,13
Cc1ccc(S(=O)(=O)NCc2cccnc2)s1,·,-7,6,i,1,-3,0,·
O=C(NCCCc1ccccc1)c1cncc(Br)c1,-2,3,4,i,-3,2,3,5
CCOc1ccc(N(C(=O)CNC(=O)c2ccco2)C(C(=O)NCC2CCCO2)c2ccccc2)cc1 (stereo not drawn),1,6,5,i,9,-2,-1,-10
CCCc1nc(-c2cc3ccccc3[nH]c2=O)no1,227*,-8,-2,i,8,2,3,-12
CN(C)c1ccc(C2C3C(=O)NC(=O)C3ON2c2ccc(Cl)cc2)cc1 (stereo not drawn),-8,26,7,i,-4,-2,0,-11
O=C(c1cccc([N+](=O)[O-])c1)c1ccc2c(c1)C(=O)NC2=O,-11,-18,50,i,3,-3,-8,20
CCN(CC)CCN1C(=O)C(=O)/C(=C(/O)c2ccc(S(=O)(=O)N3CCOCC3)cc2)C1c1ccc(C)cc1 (stereo not drawn),·,7,8,i,1,3,3,-5
Cc1nn(C)cc1/C=N/NC(=O)CSc1ccccn1,·,-11,1,i,-3,1,4,16
